RGS16-Gao HTS = RGS16-Galphao interaction regulator (human); O15492+P09471; bead-based flow cytometry RGS16-Galphao binding, fluorescence; actives lie on both sides; binding response (% of control), % at 10 µM; 220,000 compounds, 0.38% hits; AID 1441;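 active means below 25% or above 175%, edge rows of some plates excepted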;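 further: Galphao activated by GDP with aluminum fluoride before binding; 100% = wells without compound and 0% = beads without RGS; some results beyond the cut were filed as inactive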
Target sequence (O15492 whole entry, looked up): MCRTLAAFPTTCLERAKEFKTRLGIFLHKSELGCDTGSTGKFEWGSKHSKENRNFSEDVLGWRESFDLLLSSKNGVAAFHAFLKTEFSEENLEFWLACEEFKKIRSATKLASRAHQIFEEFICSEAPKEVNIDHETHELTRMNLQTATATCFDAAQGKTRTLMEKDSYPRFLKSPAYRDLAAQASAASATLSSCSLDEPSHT
Target sequence (P09471 whole entry, looked up): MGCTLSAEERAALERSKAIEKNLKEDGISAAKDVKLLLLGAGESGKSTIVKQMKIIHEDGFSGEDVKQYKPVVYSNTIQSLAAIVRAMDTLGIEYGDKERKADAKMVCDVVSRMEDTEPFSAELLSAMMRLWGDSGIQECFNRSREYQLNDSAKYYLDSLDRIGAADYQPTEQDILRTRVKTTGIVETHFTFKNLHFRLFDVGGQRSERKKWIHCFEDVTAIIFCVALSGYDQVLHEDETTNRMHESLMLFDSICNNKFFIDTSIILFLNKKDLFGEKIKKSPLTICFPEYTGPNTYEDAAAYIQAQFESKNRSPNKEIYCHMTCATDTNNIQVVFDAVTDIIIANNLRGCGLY
INS promoter inh = TRM-6 insulin promoter activity inhibition | 130,000 compounds, 0.9% hits | AID 1273 | TRM-6 cells (human fetal islet line), insulin promoter-eGFP reporter, imaging; reporter expression induced with tamoxifen | inhibition, % at 2 µM;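 active means inhibition above the mean plus 3 SD, with well images judged a real hit on visual review, cut at about 60% in these data, passing the limit was not always enough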
HSV augment = HSV replication enhancement; 220,000 compounds, 0.005% hits; HSV replication augmentation in cells, fold increase; AID 1956; maximum fold increase;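 active means peak rise of 1.5-fold or more in the series; tested in PC3 cells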;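 further: first round at 10 µM; read as green reporter fluorescence; hits show the peak of a series up to 25 µM; 1 = signal of infected wells without compound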
GALR2 agonist = GALR2 (human) receptor agonism; GALR2-expressing cells, agonist activation read-out; activation, %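 (tested at 5 µM)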; 140,000 compounds, 0.48% hits; AID 803;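 active means above mean plus 3 SD of all compounds, about 5% in these data, not always enough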;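 further: 0% = vehicle buffer wells and 100% = reference agonist at full effect; tested in CHO reporter cells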
Target sequence (O43603 whole entry, looked up): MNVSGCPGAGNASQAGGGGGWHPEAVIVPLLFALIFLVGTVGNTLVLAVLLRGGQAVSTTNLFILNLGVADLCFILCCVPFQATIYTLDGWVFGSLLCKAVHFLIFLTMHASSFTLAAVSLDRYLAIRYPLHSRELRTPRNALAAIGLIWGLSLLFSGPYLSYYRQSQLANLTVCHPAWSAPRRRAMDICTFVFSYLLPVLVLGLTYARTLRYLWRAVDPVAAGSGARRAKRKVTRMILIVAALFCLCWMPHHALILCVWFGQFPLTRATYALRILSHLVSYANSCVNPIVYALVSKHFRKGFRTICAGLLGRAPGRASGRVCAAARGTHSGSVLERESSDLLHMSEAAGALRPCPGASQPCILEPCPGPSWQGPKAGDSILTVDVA
PKD1 kinase inh = inhibitors of human PKD1 kinase | Q15139 | inhibition, %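 (about 10 µM by stock and volumes)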 | AID 797 | 200,000 compounds, 0.056% hits | PKD1 kinase fluorescence polarization assay;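 active means inhibition of 50% or more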;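 further: controls were vehicle for no effect and a reference inhibitor for full effect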
INS promoter inh cell count = also measured in INS promoter inh; calls as there; normalized cell count, %; measured here: cell count, toxicity; reference of the scale not given here;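 cells exposed to compound for 48 h; stained nuclei by imaging scaled within each plate; lower means fewer cells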
HSV augment primary fold = further read-out of HSV augment, marked with its call; fold increase; compound at 10 µM; measured here: primary screen fold increase 10 uM; tested in PC3 cells;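 GFP signal in the first replicate; 1 = infected wells without compound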
* marks the source's active call; other numbers are inactive results; i = inactive; . = not tested or not shown; [ ] = remark or other dose.

item	mol	RGS16-Gao HTS	INS promoter inh	INS promoter inh cell count	HSV augment
1	O=[N+]([O-])c1ccc(CSc2ncnc3ccccc23)cc1	97	.	.	i
2	COC(=O)c1ccc(CSc2nccn2C)cc1	98	31	106	i
3	CCOC(=O)N1CCN(Cc2ccccc2Cl)CC1	103	-22	94	i
4	COc1ccccc1/C=C/C(=O)Oc1cccc2cccnc12	94	-118	141	i
5	CCN(c1ccccc1)S(=O)(=O)c1ccc(Cl)c(C(=O)O)c1	91	.	.	i
6	CCC(=O)Nc1cccc(-c2nnc(-c3cccc(NC(=O)CC)c3)o2)c1	92	-31	142	i
7	C1=CCC(CN2CCN(C3CCCCCC3)CC2)CC1 (configuration not stated)	106	-36	62	i
8	CCOc1ccc(-n2c(C)c(C(=O)OC)c3cc(O)ccc32)cc1	97	.	.	i
9	O=C(c1cnn(-c2ccccc2)c1)c1ccc2ccccc2c1O	93	-29	131	i
10	COc1cc(S(=O)(=O)N2CCCCC2)ccc1NC(C)=O	122	.	.	i
11	COCCN1C(=O)N[C@@H](c2ccco2)C(C(C)=O)=C1C	104	5	122	i
12	Cc1ccccc1C(=O)NC1CCN(CC(=O)NCc2cccs2)CC1	102	-77	71	i
13	CC(C)OC(=O)c1ccc(NC(=O)Cn2c(-c3nonc3N)nc3ccccc32)cc1	100	23	159	i
14	CCCCNC(=S)NNC(=O)c1csc2ccccc12	105	57	45	i
15	Cc1ccc(OP(=O)(Nc2c(C)n(C)n(-c3ccccc3)c2=O)Oc2ccc(C)cc2)cc1	107	0	66	i

item	HSV augment primary fold	GALR2 agonist	PKD1 kinase inh
1	0.83	.	-5
2	0.89	-2.1	1
3	0.98	-1.2	-7
4	0.63	.	2
5	0.87	.	-8
6	0.79	-0.6	-3
7	0.93	.	2
8	0.67	.	.
9	0.98	-2.4	5
10	1.1	-2.4	-1
11	0.95	-1.9	8
12	0.95	.	-2
13	0.76	1.0	-5
14	1.1	-0.2	-2
15	0.98	0.1	-9

Whole records as entered above:
CCCCNC(=S)NNC(=O)c1csc2ccccc12 is entered as RGS16-Gao HTS: 105; INS promoter inh: 57; INS promoter inh cell count: 45; HSV augment: i; HSV augment primary fold: 1.1; GALR2 agonist: -0.2; PKD1 kinase inh: -2
CCN(c1ccccc1)S(=O)(=O)c1ccc(Cl)c(C(=O)O)c1 is entered as RGS16-Gao HTS: 91; INS promoter inh: .; INS promoter inh cell count: .; HSV augment: i; HSV augment primary fold: 0.87; GALR2 agonist: .; PKD1 kinase inh: -8

Next part.
item	mol	RGS16-Gao HTS	INS promoter inh	INS promoter inh cell count	HSV augment
16	CC1(C)C(=O)OC(c2c(F)c(F)c(F)c(F)c2F)C2(CCCCC2)C1=O (configuration not stated)	88	3	67	i
17	O=C(O)CSc1nnc(Cn2nnc3ccccc32)n1CCc1ccccc1	100	.	.	i
18	C/C(Cc1ccccc1)=N\NC(=O)CNC(=O)c1ccc2c(c1)OCCO2	105	.	.	i
19	O=C(NCc1ccccc1)NC1(C(=O)N2CCOCC2)CCCCC1	106	.	.	i
20	C=CCn1cnc2c(nnn2-c2ccc(Cl)cc2)c1=O	106	33	106	i
21	CNCC(O)C(O)C(O)C(O)CO (configuration not stated)	101	.	.	i
22	COc1ccc(-n2c(SCC(=O)c3ccc[nH]3)nnc2-c2ccccc2)cc1	87	-71	50	i
23	Cc1noc(C)c1S(=O)(=O)Nc1ccc(C(=O)NC2CCCCCC2)cc1	113	.	.	.
24	CCSc1nnc(NC(=O)C(C)(C(F)(F)F)C(F)(F)F)s1	288*[activator]	.	.	i
25	Cc1nc2cc(-c3cccc(F)c3)nn2c(C)c1CCC(=O)NC(C)c1ccc2c(c1)OCCO2 (configuration not stated)	101	-20	118	.
26	CC(C)CNc1cc(=O)n(C)c(=O)n1C	118	-50	142	i
27	COc1cc(C(=O)Nc2cccc(-c3nc4ccccc4o3)c2C)cc(OC)c1OC	103	-29	48	i
28	O=c1[nH]c2ccccc2c(=O)n1Cc1ccco1	104	25	130	i
29	COc1ccc(S(=O)(=O)Nc2ccccc2C(=O)NCc2ccco2)cc1Br	102	13	66	i
30	COc1ccc(Cn2c(CCC(=O)N3CCN(c4ccccn4)CC3)nc3ncccc3c2=O)cc1	103	29	201	i

item	HSV augment primary fold	GALR2 agonist	PKD1 kinase inh
16	0.95	-1.1	-3
17	1.1	-1.1	-1
18	1.4	.	.
19	1.1	-1.3	-5
20	0.89	.	-5
21	0.8	.	-2
22	1	-0.6	5
23	.	-0.9	-6
24	0.97	-2.2	-14
25	.	-0.3	-8
26	0.99	-3.2	1
27	0.97	-1.3	-9
28	0.91	-1.3	0
29	0.92	-1.5	-4
30	1	-2.5	10

(listing goes on)
item	mol	RGS16-Gao HTS	INS promoter inh	INS promoter inh cell count	HSV augment
31	S=C(NCc1ccncc1)NC1CCCC1	100	0	87	i
32	O=[N+]([O-])c1cccc(/C=N/n2cnnc2)c1	102	.	.	i
33	Cc1ccc(/C=N/NC(=S)NC(C)C)o1	101	17	90	i
34	Nc1cc(=O)[nH]c(SCC(=O)N2N=C(c3ccc(Cl)cc3)CC2c2ccco2)n1 (configuration not stated)	108	.	.	i
35	COC(=O)c1nc2nc(C)cc(=O)n2[nH]1	106	23	104	i
36	COc1ccc([N+](=O)[O-])c2c(=O)ccoc12	105	-15	188	i
37	CCCCNC(=O)OCC(CC)NC(=O)OC(C)C (configuration not stated)	102	.	.	i
38	COc1ccccc1NC(=O)Nc1ccccc1Br	99	.	.	i
39	Cc1cc(Cl)ccc1OCC(=O)Nc1ccccc1N1CCOCC1	84	-363	77	i
40	O=C(Cc1ccccc1)NNC(=O)c1cccs1	101	.	.	i
41	COc1cc(NC(=O)C2CCCN2C(=O)C2CCC(C)CC2)cc(OC)c1OC (configuration not stated)	97	.	.	i
42	c1ccc(-c2noc(CC3CCCCC3)n2)nc1	111	.	.	i
43	O=C(NC1CCCCC1)c1ccccc1NC(=O)C1CC(=O)N(c2ccc(Cl)cc2)C1 (configuration not stated)	99	52	127	i
44	CCCCCCCCNC(=O)c1cccnc1SCC(=O)Nc1ccccc1OC	134	-31	77	i
45	COc1ccc(OC)c(N(CC(=O)Nc2ccc3c(c2)OCCO3)S(C)(=O)=O)c1	102	.	.	i

item	HSV augment primary fold	GALR2 agonist	PKD1 kinase inh
31	1.1	.	-3
32	0.99	.	.
33	0.91	-3.1	-3
34	0.7	.	-2
35	0.87	0.3	-9
36	0.8	-0.6	-4
37	0.93	1.9	1
38	1	.	-2
39	0.96	-0.7	0
40	0.98	-3.3	-1
41	0.93	-2.8	-11
42	0.99	.	-5
43	0.87	-6.0	-4
44	0.94	-0.6	-2
45	1	-0.8	-6

As entered above:
entry 35 – GALR2 agonist: 0.3
entry 41 – RGS16-Gao HTS: 97
entry 45 – HSV augment primary fold: 1

(more compounds)
item	mol	RGS16-Gao HTS	INS promoter inh	INS promoter inh cell count	HSV augment
46	COCCNC(=S)N/N=C(\C)c1ccc(Cl)c(Cl)c1	100	.	.	i
47	CC12CN3CC(C)(CN(C1)C3c1ccccc1)C2O (configuration not stated)	103	12	112	i
48	O=C1c2cccnc2C(O)N1C1CCCCC1 (configuration not stated)	87	21	79	i
49	COc1ccc2nc(C)cc(Nc3ccccc3O)c2c1	102	-50	39	i
50	O=C(c1ccccc1)c1ccc2nc[nH]c2c1	98	95*	75*	i
51	Cc1ccc2c(c1)C(C)(C)[C@]1(C)NC(=O)CCN21	101	18	158	i
52	C/C(CCc1ccccc1)=N\NC(=O)C(=O)Nc1cccc(Cl)c1	101	.	.	i
53	CC1CC(C)CN(CC(=O)N2c3ccccc3CCc3ccccc32)C1 (configuration not stated)	178	-17	92	i
54	Cc1cc(C)c(C)c(OCCOCCN2CCOCC2)c1	99	-50	133	i
55	Cc1ccc(Cc2cc(-c3ccc(C)cc3)n[nH]c2=O)cc1	102	.	.	i
56	COc1ccc(C(CCNCc2ccc(N(C)C)cc2)C(C)C)cc1 (configuration not stated)	109	.	.	i
57	CS(=O)(=O)Nc1ccc(S(=O)(=O)Nc2nccs2)cc1	101	-17	143	i
58	CC(CC(=O)O)n1nnc2ccccc21 (configuration not stated)	87	.	.	i
59	COc1ccc(NC(=O)/C(C#N)=C/c2ncc([N+](=O)[O-])n2C)c(OC)c1	106	.	.	i
60	CN(NC(=O)c1ccccc1Cl)c1ncc(C(F)(F)F)cc1Cl	99	.	.	i

item	HSV augment primary fold	GALR2 agonist	PKD1 kinase inh
46	0.86	.	2
47	1	.	-2
48	0.96	-3.2	-10
49	0.82	.	-5
50	0.99	-3.7	-4
51	1	-0.9	8
52	0.92	.	-3
53	0.86	-1.6	-4
54	0.98	1.2	-11
55	1	.	.
56	0.75	.	.
57	0.99	-0.7	2
58	0.93	.	.
59	0.83	.	.
60	1	.	.

New compounds follow
item	mol	RGS16-Gao HTS	INS promoter inh	INS promoter inh cell count	HSV augment
61	CN(CC(=O)Nc1ccc(S(N)(=O)=O)cc1)c1ccccc1	109	-55	109	i
62	O=C(CN1CCCC1)N1c2ccccc2C=Cc2ccccc21	100	-43	65	i
63	CCOC(=O)c1cc(=O)c2ccc(OCC(=O)Nc3ccc(F)cc3)cc2o1	100	.	.	i
64	O=C(NC(Cc1ccccc1)c1nc2ccccc2[nH]1)C1CC(=O)N(c2ccc3c(c2)OCCO3)C1 (configuration not stated)	96	-6	141	i
65	O=C(CNCCO)N1CCc2ccccc21	106	-19	65	i
66	COc1ccc(Cl)c(NCCC(=O)O)c1	101	24	93	i
67	COc1ccccc1NC(=O)C(NC(=O)OC(C)(C)C)C(C)OCc1ccccc1 (configuration not stated)	89	-50	100	i
68	CN(C)c1ccc(/C=N/O)cc1	101	.	.	i
69	COc1cc(/C=C(/C#N)c2nc3ccccc3[nH]2)ccc1OCC(=O)Nc1ccccc1C	104	.	.	i
70	O=C(CSc1nc2ccc([N+](=O)[O-])cc2[nH]1)NC1CCCCCC1	104	53	71	i
71	COc1cccc(NC(=O)N2CCCC2C(=O)NCc2ccccc2F)c1 (configuration not stated)	104	.	.	i
72	Cc1cccc(NC(=O)COc2ccc(Br)cc2)n1	79	-10	126	i
73	COc1ccc(N2C(=O)C(Cl)=C(Nc3ccc(OC)cc3OC)C2=O)cc1	101	.	.	i
74	COCCNC(=O)c1onc(CCl)c1C(=O)OC	106	.	.	i
75	COc1ccc(CCNC(=O)Cn2ccc3c(OC)cccc3c2=O)cc1OC	102	.	.	i

item	HSV augment primary fold	GALR2 agonist	PKD1 kinase inh
61	1	-1.3	-3
62	0.95	.	-4
63	0.99	.	.
64	0.92	-1.3	0
65	1.1	-2.2	-10
66	0.77	-1.1	-2
67	0.9	-0.7	-1
68	0.98	.	8
69	0.79	-0.6	-9
70	0.91	-1.3	-2
71	1.1	.	7
72	1.3	-1.2	-7
73	1	.	-5
74	1.3	-1.3	-2
75	1	.	.

Random excerpt: 2 entries already listed
item	mol	RGS16-Gao HTS	INS promoter inh	INS promoter inh cell count	HSV augment
63	CCOC(=O)c1cc(=O)c2ccc(OCC(=O)Nc3ccc(F)cc3)cc2o1	100	.	.	i
39	Cc1cc(Cl)ccc1OCC(=O)Nc1ccccc1N1CCOCC1	84	-363	77	i

item	HSV augment primary fold	GALR2 agonist	PKD1 kinase inh
63	0.99	.	.
39	0.96	-0.7	0

Next part.
item	mol	RGS16-Gao HTS	INS promoter inh	INS promoter inh cell count	HSV augment
76	CC12CCC(C1)C(C)(C)C2OC(=O)c1ccccc1C(=O)O (configuration not stated)	145	.	.	i
77	O=C(N[C@@H](c1ccccc1)[C@@H]1C[C@H]1C(=O)NCc1ccccn1)OCc1ccccc1	112	18	83	i
78	CC(Oc1cc(F)ccc1[N+](=O)[O-])C(=O)Nc1ccc(S(=O)(=O)N2CCCC2)cc1 (configuration not stated)	97	.	.	i
79	O=C(NCCCCc1ccccc1)c1ccccc1	103	0	115	i
80	Cc1ccc(/C=C/C(=O)Nc2nccs2)o1	91	-41	111	i
81	C[C@@H]1C=C(C(=O)N2CCN(Cc3ccc4c(c3)OCO4)CC2)O[C@H](OCCCCO)C1	98	.	.	.
82	FC(F)(F)c1cnc(N2CCC(=NOCc3ccc(Cl)cc3)CC2)c(Cl)c1	106	.	.	i
83	COC(=O)c1cc(NC(=O)c2cc(C(C)(C)C)nn2Cc2cccc(C)c2)ccc1N1CCOCC1	100	.	.	i
84	CCOc1ccccc1C(=O)Nn1c(C2CCC2)nc2ccccc2c1=O	101	-117	121	i
85	CC1CCC(C(C)C)C(OC(=O)C[n+]2cc(-c3ccc(Cl)cc3)n3c2CCCCC3)C1 (configuration not stated)	102	.	.	i

item	HSV augment primary fold	GALR2 agonist	PKD1 kinase inh
76	0.84	.	.
77	0.95	-3.4	-6
78	0.91	.	2
79	0.93	.	-13
80	1.2	-0.1	7
81	.	.	-3
82	1	-1.1	-3
83	0.93	.	.
84	0.84	-3.2	-5
85	0.7	.	-7
